AmpC inh no det: Promiscuous and Specific Inhibitors of AmpC Beta-Lactamase (assay without detergent). AmpC nitrocefin hydrolysis, absorbance 480 nm, no detergent; potencies from a single point are estimates. Potency, µM (doses to about 28.7 µM), inactives show at the top dose activity change, negative = inhibition. P00811. 71,000 tested, 1.8% active. AID 585, 2007; active = falling curve, for most hits resting on a single point; inconclusive = weak or doubtful change; inactive = flat or rising curve; also: % of control where 0% means no effect; a quarter of the inactives give rising signals
Target sequence (P00811 whole entry, looked up): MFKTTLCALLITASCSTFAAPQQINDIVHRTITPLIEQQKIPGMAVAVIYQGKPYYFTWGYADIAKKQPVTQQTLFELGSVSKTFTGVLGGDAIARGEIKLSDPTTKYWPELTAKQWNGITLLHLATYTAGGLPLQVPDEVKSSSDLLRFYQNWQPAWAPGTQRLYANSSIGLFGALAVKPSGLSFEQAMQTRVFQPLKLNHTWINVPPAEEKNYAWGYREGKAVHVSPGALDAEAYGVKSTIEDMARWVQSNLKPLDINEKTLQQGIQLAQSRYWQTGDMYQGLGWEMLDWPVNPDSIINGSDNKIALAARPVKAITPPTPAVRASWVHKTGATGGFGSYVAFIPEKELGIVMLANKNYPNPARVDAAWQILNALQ
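Enzyme, pH 7.0 phosphate. Compound titrations were pre-incubated with AmpC for 15 min at room temperature before nitrocefin (stock 800 uM) addition; product formation was recorded at 480 nm every 20 s for 4 min.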
* marks the source's active call; other numbers are inactive results; ? = inconclusive; & = joins results of further samples; [ ] = another dose, or the depositor's remark. Potency is read from the fitted curve at half-maximal effect.

SMILES	AmpC inh no det
CSCCC(NC(=O)c1c(C)oc2c1CCCC2)C(=O)O (stereo not drawn)	4%
C=C(C)C1Cc2c(C)nn(-c3ccccc3)c2C1 (stereo not drawn)	14%
CCCC(=O)Nc1ccc(C(=O)NCC(=O)OCC)cc1	2%
COc1ccc(S(=O)(=O)N2CCSC2c2ccccc2)cc1 (stereo not drawn)	0%
Cc1c(NS(=O)(=O)c2ccc3[nH]c(=O)[nH]c3c2)c(=O)n(-c2ccccc2)n1C	0%
CCOc1cc(C(=O)Nc2cc(=O)n(C)c(=O)n2C)cc(OCC)c1OCC	20%
COc1ccc(OC)c(S(=O)(=O)Nc2ccccc2F)c1	4%
CCC(Sc1ccc2nnc(-c3ccc(OC)c(OC)c3)n2n1)C(=O)O (stereo not drawn)	-1%
CCC(c1c(C)[nH]oc1=O)c1c(C)[nH]oc1=O	6%
CCC1Oc2ccccc2N(CC(=O)NCCCN2CCN(Cc3ccccc3)CC2)C1=O (stereo not drawn)	43%
CO[C@@H]1/C=C\O[C@@]2(C)Oc3c(C)c(O)c4c(c3C2=O)C(=N[C@H]2CC[C@H](O)O[C@@H]2C)C=C(NC(=O)/C(C)=C\C(=O)[C@@H]2C[C@@H]2[C@@H](O)[C@H](C)[C@@H](O)[C@H](C)[C@H](OC(C)=O)[C@@H]1C)C4=O	35%[5.75 µM]
COc1ccc(CC2NCCC3(O)CCCCC23)cc1 (stereo not drawn)	-5%
CCOc1ccc(Br)cc1S(=O)(=O)Nc1ccccc1N1CCOCC1	82%
CCn1c(NCc2c[nH]c3ccccc23)nc2ccccc21	10%
CCN(CC)CCn1c(=S)[nH]c2cc(Cl)ccc2c1=O	-11%
CN(C)c1ccc(C(c2ccc(N(C)C)cc2)c2ccc([N+](=O)[O-])cc2)cc1	-1%[5.75 µM]
CC(C)CCNc1nc2c(c(=O)[nH]c(=O)n2C)n1CC(O)COC(C)C (stereo not drawn)	36%
COC(=O)c1sc2ccccc2c1C(=O)OC	10%
Cc1cc(C)n2c(SCC(=O)NCc3ccco3)nnc2n1	-1%
CC(NC(=O)COc1ccccc1)C(c1ccccc1)N1CCN(C)CC1 (stereo not drawn)	18%

Ordered by SMILES length (lowest first): part of the list above
SMILES	AmpC inh no det
COc1ccc(OC)c(S(=O)(=O)Nc2ccccc2F)c1	4%
CCN(CC)CCn1c(=S)[nH]c2cc(Cl)ccc2c1=O	-11%
CC(C)CCNc1nc2c(c(=O)[nH]c(=O)n2C)n1CC(O)COC(C)C (stereo not drawn)	36%

Further compounds.
SMILES	AmpC inh no det
C[C@H](O)[C@H](O)[C@@H](O)c1cnc2nc(N)[nH]c(=O)c2n1	1%
COC(=O)c1c(NC(=O)C2CC=CCC2C(=O)O)sc(C(N)=O)c1C (stereo not drawn)	-16%
CCOC(=O)c1c(C)[nH]c(C)c1C(=O)COC(=O)CCOc1ccccc1OC	53%
Cc1cc(-c2csc(NC(=O)c3ccc(=O)n(C)n3)n2)c(C)n1CC1CCCO1 (stereo not drawn)	104%
O=C(CCN1C(=O)COc2ccccc21)NCCN1CCN(c2cccc(Cl)c2)CC1	137%
N#CCCN(Cc1cccnc1)C(=O)c1ccc(S(=O)(=O)N2CCOCC2)cc1	-6%
O=c1c2cc(N3CCOCC3)ccc2[nH]c(=S)n1Cc1ccco1	3%
CCCc1cc(C(=O)N2CCN(C(c3ccccc3)c3ccccc3)CC2)no1	49%
CN(C)C(=O)c1ccc(-c2nccc(Nc3ccc(F)cc3)n2)cc1	134%
CCc1c(C)nc(N)n2c(SCC(=O)N3CCCC(C)C3)nnc12 (stereo not drawn)	-4%
Cc1noc(C)c1S(=O)(=O)Nc1ccc(C(=O)O)cc1	-11%
Cc1ccc(Nc2cc(C)nn2-c2nc(C)cc(=O)[nH]2)cc1	59%
COc1ccc(C2C(C(=O)N3CCCCC3)c3ccccc3C(=O)N2C)cc1 (stereo not drawn)	30%
CCn1ccc(C(=O)Oc2ccc(C(C)C)cc2)n1	41%
O=C(CSc1nnc(-c2ccco2)n1-c1ccccc1)N1CCN(C(=O)c2ccco2)CC1	48%
CN1C(=O)c2oc3ccccc3c(=O)c2C1c1ccncc1 (stereo not drawn)	-17%
COC(=O)c1[nH]c2ccc(C)cc2c1NC(=O)C1=COCCO1	-5%
Cc1sc2ncn(CC(=O)N3CCC4(CC3)OCCO4)c(=O)c2c1C	7%
CCN1C(=O)c2ccccc2Sc2ccc(C(=O)NCCN3CCOCC3)cc21	93%
O=C1C2CCCN2C(c2ccccc2)N1c1cccc(Cl)c1 (stereo not drawn)	22%
Cc1ccc(-n2ncc(C(=O)N3CCc4ccccc4C3)c2NC(=O)c2ccco2)cc1C	53%
CC1CC(C)CN(CC(C)(C)NS(=O)(=O)c2ccccc2)C1 (stereo not drawn)	-3%
O=C(CN1CCN(c2ccc(Cl)cc2)CC1)Nc1ccc(F)cc1	48%
O=C(CN1CCN(CCOCCO)CC1)N1c2ccccc2Sc2ccc(Cl)cc21	102%
COc1ccc(CNC(=O)/C=C\c2ccc3[nH]cc(CCN(C)C)c3c2)cc1	33%&11%
CC(C)CN1CC2(CCN(C(=O)c3cccc(F)c3)CC2)C1	4%
CC1CC(C)CN(CCCNC(=O)C2CCN(S(=O)(=O)N3CCCCC3)CC2)C1 (stereo not drawn)	14%
O=C(NCc1ccco1)c1csc2c1CCCCC2	-9%
CC1CCCC(NC(=O)c2ccc(CNc3c(N4CCCC4)c(=O)c3=O)cc2)C1C (stereo not drawn)	15%
Cc1ccc2c(CC(=O)OC3CCOC3=O)coc2c1 (stereo not drawn)	18%
COc1cc(C(=O)NCc2ccco2)cc(OC)c1OC	7%
COc1ccc(C2OC(=O)CC2C(=O)NC2CCCCCC2)cc1OC (stereo not drawn)	1%
COC(=O)c1ccccc1NC(=O)Cn1cnc2cc(C)c(C)cc21	64%
Cn1c(=O)[nH]c(=O)c2c1nc(CN1CCN(c3cccc(Cl)c3)CC1)n2CCN1CCOCC1	143%
CC1(C)CC(=O)C(C=NCCc2ccc(S(N)(=O)=O)cc2)=C(O)C1	0%
CC1S/C(=C(\C#N)C(N)=O)N(c2ccc(F)cc2)C1=O (stereo not drawn)	-12%
CC(=O)c1cc2c(cc1NC(=O)CCc1ccccc1)OCO2	23%
COC(=O)c1cc(NS(=O)(=O)c2ccc3c(c2)CCC(=O)N3)cc(C(=O)OC)c1	-2%
COc1ccc(C2c3sc(=O)[nH]c3SC3C(=O)N(c4ccccc4)C(=O)C32)cc1 (stereo not drawn)	4µM*[single pt active]
COCCn1nnnc1C(c1cc2cccc(C)c2[nH]c1=O)N1CCN(c2ccccc2F)CC1 (stereo not drawn)	132%
COC(=O)c1cc(OC)c(OC)cc1NC(=O)c1cnccn1	63%
COc1ccc(S(=O)(=O)N(C)c2ccc(C(=O)N3CCC(C(N)=O)CC3)cc2)cc1	19%
COCCOC(=O)c1c(C)n(C)c2ccc(OC(=O)c3cccs3)cc12	62%
CN1CCN(c2ccc(Cl)cc2NS(=O)(=O)c2ccccc2Cl)CC1	70%
Cc1c(C(=O)NCc2cccnc2)oc2ccc(S(=O)(=O)N3CCCCC3)cc12	75%
Cc1ccccc1-n1nnnc1SCc1csc(-c2ccccc2)n1	-3%
Cc1cnc(C(=O)Nc2ccccc2-n2cccc2)cn1	9%
CCOc1ccccc1C1CC(c2ccccc2)Nc2nc(N)nn21 (stereo not drawn)	4µM*[single pt active]
O=C(CSc1nnc2scc(-c3ccccc3)n12)N1CCCc2ccccc21	31%
Cc1c(C(=O)O)oc2ccc(S(=O)(=O)NCCC3=CCCCC3)cc12	-25%
Cc1ccc(-c2nc(CSCC(=O)NCc3cccnc3)c(C)o2)cc1	52%
CCCCCCn1c(CN2CCN(C(=O)OCC)CC2)nc2c1c(=O)n(C)c(=O)n2C	120%
N#Cc1cc2c(nc1SCC(=O)Nc1ccc(Cl)cc1)C1CCN2CC1	22%
COCc1nnc(SCC(=O)NCc2ccccc2)n1-c1ccccc1	16%
CN(C)S(=O)(=O)c1ccc(C(=O)Nc2nnc(Cc3ccccc3)s2)cc1	10%
COc1ccc(CC(=O)NCc2cccs2)cc1	-7%
CCOC(=O)c1c(C)c(C(=O)Nc2ccc3c(c2)OCO3)c(C)n1C	23%
CCN1CCCC1CNC(=O)Cn1cccc1C(=O)c1ccccc1C (stereo not drawn)	4%
COc1ccccc1NC(=O)COC(=O)CNC(=O)c1ccc(OC)c(OC)c1	?
COc1cc2c(CCNC(C)=O)c[nH]c2cc1O	8%

(list continues)
SMILES	AmpC inh no det
O=C(c1ccc(NS(=O)(=O)c2cccs2)cc1)N1CCCCC1	-22%
COCCNC(=O)c1cc2c(-c3ccc(Cl)cc3)nn(C)c2s1	128%
Cc1cccc(Cn2c(N3CCCCC3C)nc3c2c(=O)[nH]c(=O)n3C)c1 (stereo not drawn)	-3%
O=C(CN(C(=O)CCC(=O)Nc1ccccn1)c1ccc2c(c1)OCCO2)NCCc1ccccc1	45%
COc1cc(S(=O)(=O)NCC2CCCO2)c(OC)cc1Cl (stereo not drawn)	3%
O=C(NCCN1CCOCC1)c1cccs1	-4%
Cc1cccc2cc(CN(Cc3nnnn3C3CCCC3)C3CCCCC3)c(=O)[nH]c12	34%
COC(=O)c1[nH]c(C)c(/C(O)=C2\C(=O)C(=O)N(CCN(C)C)C2c2ccc(OC)cc2)c1C (stereo not drawn)	-5%
CC(=O)NCCc1cc2cc(C)c(C)cc2[nH]c1=O	-10%
CCOC(=O)c1sc(NC(=O)CSc2ncn[nH]2)c(C#N)c1C	-6%
CCCn1cc(S(=O)(=O)CC(=O)Nc2ccc(OCC)cc2)c2ccccc21	4%
CNC(=O)c1nnc(Cc2ccc(F)cc2)o1	-5%
CCOC(=O)N1CCC(N2C(=O)c3ccccc3C2Nc2ccc3c(C)cc(=O)oc3c2)CC1 (stereo not drawn)	113%
CCc1ccc(S(=O)(=O)c2n[nH]n3c2nc(=O)c2ccccc23)cc1	-16%
CCOC(=O)c1ccccc1NS(=O)(=O)c1ccc(S(=O)(=O)N2CCCC2)cc1	35%
N#Cc1nc(-c2ccco2)oc1N1CCCC1	-14%
O=C(Cn1cnc2ccccc2c1=O)Nc1ccc2c(c1)CCC2	0%
O=C1CN(C(=O)c2ccccc2F)c2ccccc2N1	-3%
COC(=O)c1c(NC(=O)CSc2nnc(-c3cccnc3)n2Cc2ccco2)sc(C)c1C	121%
O=C(CCS(=O)(=O)c1cccc2nonc12)NCCc1ccccc1	-3%
O=C(Nc1sc2c(c1C(=O)NC1CCCCC1)CCC2)c1ccco1	36%
Cc1cc2cc(CN(Cc3ccc4c(c3)OCO4)C(=O)c3cnccn3)c3nnnn3c2cc1C	110%
O=C(c1cc2c(s1)-c1ccccc1OC2)N1CCN(c2ccccn2)CC1	8%
CCCn1[nH]cc(SC)c(=O)c1=O	7%
Cc1csc(NC(=O)c2nc(-c3ccccc3)n(-c3ccccc3)n2)n1	21%
O=C1NC2CCCCC2NC1CC(=O)N1CCN(c2ccccc2)CC1 (stereo not drawn)	-4%
NC(=O)c1cn(-c2ccccc2)nc1-c1cccnc1	-3%
O=[N+]([O-])c1ccccc1Nc1ccccc1	-7%
O/N=C(\Cc1cscn1)c1ccc(O)cc1O	-7%
COc1ccc(CCNC(=O)CN(c2ccccc2OC)S(C)(=O)=O)cc1OC	18%
CCn1c(=O)c2cc(C(=O)NCc3cccs3)sc2c2ccccc21	4µM*[single pt active]
Cc1csc(NC(=O)C2CCCCC2C(=O)O)n1 (stereo not drawn)	-5%
CC1=C(C(=O)OC(C)C)C(c2cccc(F)c2)N2C(=O)C(C)SC2=N1 (stereo not drawn)	41%
CCOC(=O)C1CCCN(C(=O)c2ccc(OC(C)=O)cc2)C1 (stereo not drawn)	11%
COc1ccc(-n2cnnc2SCc2cnc(-c3ccccc3)s2)cc1	56%
Cn1cccc1C(=O)N1CCC[C@@]2(CCN(c3ccccn3)C2)C1	39%
COc1cccc(Cn2c(=O)c(C)nc3cnc(N(C)C)nc32)c1	102%
c1ccc2c(c1)c1ccccc1n2Cn1c2ccccc2c2ccccc21	-17%[5.75 µM]

Filtered by structure: the compounds so far containing a halogen
SMILES	AmpC inh no det
COc1ccc(OC)c(S(=O)(=O)Nc2ccccc2F)c1	4%
CCOc1ccc(Br)cc1S(=O)(=O)Nc1ccccc1N1CCOCC1	82%
CCN(CC)CCn1c(=S)[nH]c2cc(Cl)ccc2c1=O	-11%
O=C(CCN1C(=O)COc2ccccc21)NCCN1CCN(c2cccc(Cl)c2)CC1	137%
CN(C)C(=O)c1ccc(-c2nccc(Nc3ccc(F)cc3)n2)cc1	134%
O=C1C2CCCN2C(c2ccccc2)N1c1cccc(Cl)c1 (stereo not drawn)	22%
O=C(CN1CCN(c2ccc(Cl)cc2)CC1)Nc1ccc(F)cc1	48%
O=C(CN1CCN(CCOCCO)CC1)N1c2ccccc2Sc2ccc(Cl)cc21	102%
CC(C)CN1CC2(CCN(C(=O)c3cccc(F)c3)CC2)C1	4%
Cn1c(=O)[nH]c(=O)c2c1nc(CN1CCN(c3cccc(Cl)c3)CC1)n2CCN1CCOCC1	143%
CC1S/C(=C(\C#N)C(N)=O)N(c2ccc(F)cc2)C1=O (stereo not drawn)	-12%
COCCn1nnnc1C(c1cc2cccc(C)c2[nH]c1=O)N1CCN(c2ccccc2F)CC1 (stereo not drawn)	132%
CN1CCN(c2ccc(Cl)cc2NS(=O)(=O)c2ccccc2Cl)CC1	70%
N#Cc1cc2c(nc1SCC(=O)Nc1ccc(Cl)cc1)C1CCN2CC1	22%
COCCNC(=O)c1cc2c(-c3ccc(Cl)cc3)nn(C)c2s1	128%
COc1cc(S(=O)(=O)NCC2CCCO2)c(OC)cc1Cl (stereo not drawn)	3%
CNC(=O)c1nnc(Cc2ccc(F)cc2)o1	-5%
O=C1CN(C(=O)c2ccccc2F)c2ccccc2N1	-3%
CC1=C(C(=O)OC(C)C)C(c2cccc(F)c2)N2C(=O)C(C)SC2=N1 (stereo not drawn)	41%

Not all compounds are listed; the hit share may differ from the screen's.
